High-throughput results: PubChem, National Center for Advancing Translational Sciences (NCATS)
HTT promoter inh: HTT promoter inhibition; HEK293 HTT promoter firefly luciferase reporter (activity 0% = vehicle and -100% = no light), 24 h; Potency, µM (titrated, usually from 57.5 µM), for inactives: top-dose activity change, negative = inhibition, actives largely listed as inhibitors; 48,000 tested, 0.93% active; AID 1508623; active means well fitted inhibition curve with a large enough effect; inconclusive means small, poorly fitted or top-dose-only effect; inactive means no such curve, though single readings can be large or run the other way; further: nearly all actives have a fitted effect of over 50% in size
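HEK293 luciferase promoter-reporter cells (2,500/well) plated 24 h, then compounds added at up to 57.5 uM final for 24 h at 37 °C. Firefly luminescence by Dual-Glo, normalized to vehicle (0%) and zero RLU (-100%).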
PMP22 txn prim: modulators of PMP22 gene transcription in S16 Schwann cells; S16 Pmp22-F2sN Schwann cells (luciferase reporters placed in the Pmp22 gene), FLuc/NLuc coincidence luminescence, 24 h; Potency, µM (doses to about 57.5 µM), for inactives: top-dose activity change, negative = inhibition, hits mostly inhibitors; AID 1508649; 43,000 tested, 2% active; active = clear falling dose curves in both reporters; inconclusive = both reporters move, but less clearly or upward; inactive = either reporter flat; the % is the NLuc reporter signal; further: on the % scale 0 is the no-effect control and ±100 the full control effect; some results filed as inactive show a strong effect at the top dose
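Schwann cells carrying the coincidence reporter were exposed to library compounds for 24 h at 37C, then lysed and read for FLuc and, after quenching, NLuc luminescence on a CCD imager.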
The depositor's hits bear a star; ? = inconclusive; nt = no result given; [ ] = another dose, or the depositor's remark. Potency means the concentration at half of the fitted maximal effect. The order is random; overall some 2.6% were active at least once.

SMILES | HTT promoter inh | PMP22 txn prim
O=C1CC[C@H](C(=O)N2CCCCC2)N1 | -3.7% | nt
O=C(Nc1ccc(Br)cc1)c1cc(S(=O)(=O)NC2CCCC2)ccc1F | ? | ?
CCOc1ccc(S(=O)(=O)N2CCN(c3ccc(C)cc3C)CC2)c2ccccc12 | -14.9% | -29.0%
CCC(Oc1ccc(F)cc1)C(=O)Nc1nc2c(s1)CCCC2 (centres undefined) | -20.9% | -0.2%
COc1cc(OC)cc(-c2nc3nc(C)c(CCC(=O)Nc4ccc(Cl)cc4)c(C)n3n2)c1 | -21.5% | -26.0%
COc1ccccc1NC(=O)C(=O)NCCc1csc(-c2cccc(F)c2)n1 | ? | -29.3%
CC(C)c1ccc(NC(=O)c2ccc(F)c(S(=O)(=O)N3CCc4ccccc4C3)c2)cc1 | 11.2µM* | -10.3%
COc1ccc(CC(=O)Nc2cc(-c3cn4cccnc4n3)ccc2OC)cc1 | -2.4% | -46.9%
COc1cccc(NC(=O)C2CCN(c3ccc(Sc4ccc(C)cc4)nn3)CC2)c1 | -12.6% | -39.1%
CO[C@@H]1C(N(C)C(=O)c2ccccc2)C[C@H]2O[C@]1(C)n1c3ccccc3c3c4c(c5c6ccccc6n2c5c31)C(=O)NC4=O (some centres undefined) | ? | nt

3 compounds already listed, arranged by number of heavy atoms, rising.
SMILES | HTT promoter inh | PMP22 txn prim
O=C1CC[C@H](C(=O)N2CCCCC2)N1 | -3.7% | nt
COc1ccccc1NC(=O)C(=O)NCCc1csc(-c2cccc(F)c2)n1 | ? | -29.3%
COc1ccc(CC(=O)Nc2cc(-c3cn4cccnc4n3)ccc2OC)cc1 | -2.4% | -46.9%

Other compounds.
SMILES | HTT promoter inh | PMP22 txn prim
CCCCN(C)CCNC(=O)C1CCN(c2nc3ccc(CC)cc3s2)CC1 | -11.8% | ?
Cc1ccc(-n2ncc(C(=O)NCc3ccc4c(c3)OCO4)c2C2CCN(C(=O)OC(C)(C)C)CC2)c(C)c1 | ? | ?
CCN(c1ccc(OC)cc1)S(=O)(=O)c1nnc(NC(=O)COc2ccc(F)cc2)s1 | -20.5% | ?
CCOC(=O)c1c(C)[nH]c(C)c1S(=O)(=O)N1CCCC(C(=O)Nc2ccccc2OCC)C1 (centres undefined) | -22.0% | 16.6%
COc1cccc(-c2nnc(-c3ccccc3NC(=O)c3cccc(C(F)(F)F)c3)o2)c1 | -0.4% | 5.5%
Cn1c(=O)oc2cc(S(=O)(=O)Nc3ccc(O)cc3)ccc21 | -19.2% | -23.1%
Cc1ccc(CN2C(=O)C(O)(c3c[nH]c4ccccc34)c3cc(Cl)ccc32)cc1 (centres undefined) | -19.6% | ?
CCc1nc2nc(C)cc(Nc3cc(C)ccc3C)n2n1 | -19.3% | -12.0%
CCOC(=O)c1ccccc1NC(=O)CSc1cn(CC(=O)N2CCOCC2)c2ccccc12 | -10.7% | -3.2%
COc1ccccc1N1CCN(S(=O)(=O)c2ccc(-c3cc(C(F)(F)F)on3)s2)CC1 | -17.1% | ?
N#C/C(=C/c1ccccc1Cl)c1nc(-c2cc3ccccc3oc2=O)cs1 | 16.1% | 8.2%
CC(C)(C)OC(=O)N1CCC(N2CCN(Cc3ccccc3)C(=O)C2=O)CC1 | -11.8% | -0.3%
COc1ccc(NC(=O)C2(S(=O)(=O)c3ccc(C)cc3)CC2)c(OC)c1 | 12.0% | -37.6%
Oc1c(C(c2ccccc2Cl)N2CCOCC2)sc2nc(-c3ccco3)nn12 (centres undefined) | -15.8% | 8.4%
Cc1cccc(CS(=O)(=O)Cc2ccc(C(=O)NCc3ccc(Cl)cc3)o2)c1 | ? | ?
Cc1nn2c(C)c(C(=O)NC(C)(C)C)cnc2c1-c1ccc(F)cc1 | -11.4% | 2.0%
O=C(CSc1nc(=O)n(Cc2ccco2)c2c1CCC2)NCc1ccccc1 | -0.1% | 7.7%
COc1cc2nc(NCCc3cccc(C)c3)n3nc(-c4ccccc4)nc3c2cc1OC | 4.3% | -16.4%
COC(=O)c1ccc(Cl)cc1NC(=O)Nc1nnc(N(C)Cc2ccccc2)s1 | -12.7% | -16.5%
Cc1cccc(-n2nnnc2S(C)(=O)=O)c1 | ? | 6.7µM*
O=C(Nc1nc2n(n1)C(c1ccc(Cl)cc1)C=C(c1ccccc1)N2)c1ccco1 (centres undefined) | ? | ?
O=C(O)Cc1sc(Nc2ccccc2Cl)nc1-c1ccccc1 | 69.2%[activator] | -8.8%
COc1ccc(-c2noc(CSCC(=O)Nc3cccc(C(F)(F)F)c3)n2)cc1OC | -13.1% | -0.3%
CCOc1ccc(S(=O)(=O)NCC(c2ccc(N(C)C)cc2)N2CCc3ccccc32)cc1 (centres undefined) | -17.1% | -17.5%
CC1CCc2nc3ncn(Cc4ccccc4F)c(=O)c3cc2C1 (centres undefined) | -0.4% | 41.4%
COc1ccccc1N1CCN(C(=O)C2CCN(S(=O)(=O)c3cccs3)CC2)CC1 | -3.5% | -20.2%
O=C(CCn1nc(-c2ccccc2)c2ccccc2c1=O)Nc1ccccc1 | -24.9% | -5.8%
CCCCN(CCCC)CCNC(=O)CN1C(=O)CSc2ccc(S(=O)(=O)N3CCCCC3)cc21 | -13.0% | ?
CCc1nn(CC(=O)NCCCN(CC(C)C)CC(C)C)c(=O)c2cc3sc(C)cc3n12 | -0.6% | -14.7%
O=C(Cn1nc2c(cc1=O)CCCC2)NCc1ccc(Cl)cc1 | -24.0% | ?
CCO[C@H](Cc1ccc(OCCc2ccc(OS(C)(=O)=O)cc2)cc1)C(=O)O | 11.7% | nt
Cn1c(=O)c2c(ncn2CC(=O)O)n(C)c1=O | 6.1% | nt
CCc1ccc(-c2nn(CC(=O)NCc3ccccc3)c3c2cnc2ccc(C)cc23)cc1 | 0.0% | -14.1%
O=C(CSc1nccn1Cc1ccco1)Nc1cc(C(F)(F)F)ccc1Cl | ? | -118.9%
CC(=O)Nc1cc(-c2nc3cc(Cl)ccc3o2)ccc1C | 36.0%[activator] | 13.6%
O=C(CS(=O)(=O)c1cccc2nsnc12)NCc1ccc(Cl)cc1 | -4.4% | 3.2%
COc1cccc2c1Oc1ncccc1N(C(=O)CCC(=O)NC(C)C)C2 | -5.8% | 37.6%
CCc1ccccc1NC(=O)c1cnn(-c2ccc(F)cc2)c1C1CCNCC1 | -7.8% | -4.6%
COc1ccc(OC)c(-c2cc(C(=O)NCCc3ccccc3)c3c(-c4ccc(C)cc4)[nH]nc3n2)c1 | ? | ?
COc1ccc(N(Cc2cccs2)C(=O)c2ccccc2C)cc1 | ? | -21.5%

Looked up above:
Result for `O=C(CSc1nccn1Cc1ccco1)Nc1cc(C(F)(F)F)ccc1Cl` under PMP22 txn prim: -118.9%
Result for `O=C(CS(=O)(=O)c1cccc2nsnc12)NCc1ccc(Cl)cc1` under PMP22 txn prim: 3.2%

(further entries)
SMILES | HTT promoter inh | PMP22 txn prim
CC(CNC(=O)c1ccc(Nc2nc3ccccc3n3nnnc23)cc1)c1ccccc1 (centres undefined) | 12.5% | ?
CCSc1nc2ccccc2c(OCc2cc(C(=O)OC)ccc2OC)c1C(=O)OC | -34.2% | ?
O=C(CSC1=Nc2ccccc2C2=NC(Cc3ccccc3)C(=O)N12)Nc1ccccc1F (centres undefined) | -27.3% | -12.9%
CCN(CC)S(=O)(=O)c1ccc(C(=O)N=c2sc3cccc(OC)c3n2C)cc1 | -8.6% | -31.6%
CCOC(=O)c1cc(S(=O)(=O)N2CCN(c3cccc(C)c3)C(C)C2)[nH]n1 (centres undefined) | -13.4% | -22.1%
CC(C)(C)OC(=O)N1CCC(c2c(C(=O)NCCN3CCOCC3)cnn2-c2ccc(F)cc2)CC1 | -5.1% | -2.2%
O=C1CSC(=O)N1C(CCc1ccncc1)COc1ccc(-c2cccc([N+](=O)[O-])c2)cc1 (centres undefined) | ? | nt
CCOc1ccc(CCNC(=O)c2cn(CC)c3ccc(S(=O)(=O)N4CCc5ccccc5C4)cc3c2=O)cc1OCC | 9.2% | -13.4%
COC(=O)CC1Oc2ccc(F)cc2-n2cc(-c3ccc(Cl)cc3)nc21 (centres undefined) | -8.5% | ?
COc1ccc2c(c1)c1c(c(=O)n(-c3ccccc3C)c(=O)n1Cc1c(F)cccc1Cl)n2C | -7.7% | -24.0%
CCN(CC)S(=O)(=O)c1ccc2c(c1)nc(CN(C)C(=O)Nc1ccc(C)c(F)c1)n2C | 2.7% | -36.1%
CC(C)(C)C1CCc2oc3ccc(NS(=O)(=O)c4ccc(C(=O)O)cc4)cc3c2C1 (centres undefined) | -9.4% | -29.2%
Cc1cccc(-n2ncc(C(=O)NCc3ccc4c(c3)OCO4)c2C2CCN(C(=O)OC(C)(C)C)CC2)c1 | -28.8% | -23.9%
Cc1ccc(C)c(NC(=O)CC2NCCNC2=O)c1 (centres undefined) | -31.5%[11.5 µM] | -3.7%
CCOc1ccc(-c2cc(-c3nc(-c4ccc(OC)c(OC)c4)no3)[nH]n2)cc1 | -11.5% | -37.1%
COc1ccc(-n2c(=O)c3c4c(sc3n(Cc3ccc(F)cc3)c2=O)CCCC4)c(OC)c1 | ? | 6.1%
O=C(NCc1cccs1)c1ccc(CSc2nc3cccnc3n2Cc2ccc(F)cc2)cc1 | ? | ?
CCOc1ccc(NC(=O)CSc2nc3c(oc4ccccc43)c(=O)n2-c2cc(C)cc(C)c2)cc1 | -4.3% | -4.3%
CCOc1ccc(C(=O)NCC(c2ccco2)S(=O)(=O)c2cccs2)cc1 (centres undefined) | -6.9% | -12.9%
COc1ccc(CNC(=O)c2ccc(NC(=O)N3CCCCc4ccccc43)cc2)cc1 | -27.9% | 6.7%
O=C(CSc1nnc2scc(-c3ccc(Cl)cc3)n12)Nc1ccccc1F | -20.8% | 9.0%
Cc1ccc(S(=O)(=O)NCCc2nnc3ccc(SCc4ccccc4C)nn23)cc1 | -21.9% | -28.0%
CCOC(=O)CCN(Cc1ccccc1)S(=O)(=O)c1csc(C(N)=O)c1 | -8.1% | -72.0%
COc1ccc2[nH]cc(CCN=C(NC(=O)c3ccccc3C)Nc3nc(C)cc(C)n3)c2c1 | -12.1% | ?
COC(=O)c1cc(NC(=O)C2CCCN(S(=O)(=O)c3c(C)n[nH]c3C)C2)cc(C(=O)OC)c1 (centres undefined) | -11.2% | 1.2%
Cc1oc(-c2ccccc2F)nc1CN1CCC(C(=O)NCCc2ccccc2)CC1 | -18.2% | ?
Cc1cccc(N(CC(=O)NCCSCc2ccc(Cl)cc2)S(C)(=O)=O)c1C | -29.2% | ?
Fc1ccccc1Oc1ncnc2c1oc1ccccc12 | 14.8% | -2.2%
CCOc1ccc(S(=O)(=O)N(CC(=O)Nc2ccc3c(c2)OCO3)c2ccc(C)cc2)cc1 | ? | -13.7%
CCCN1C(=O)C(NC(=O)c2ccccc2OC)(C(F)(F)F)C(C(=O)OC)=C1C (centres undefined) | -14.8% | 1.2%
Cc1ccc(CCNC(=O)NCc2noc3ccccc23)cc1 | -6.0% | 6.0%
Cc1ccc(-n2nc(C(=O)N(C)Cc3ccccc3)c3c4ccccc4n(C)c3c2=O)cc1 | -13.2% | -46.4%
NS(=O)(=O)c1ccc2nc(NC(=O)COc3ccc(Cl)cc3Cl)sc2c1 | -9.0% | 1.6%
O=C(Nc1sc2c(c1C(=O)N1CCCCC1)CCCC2)c1ccccc1Cl | -21.6% | 11.2%
CC(=O)O[C@]1(C(C)=O)CC[C@H]2[C@@H]3C=C(C)C4=CC(=O)CC[C@]4(C)[C@@H]3CC[C@@]21C | -1.7% | nt
Cc1cccc(Cn2c(SCc3ccc(C(=O)NC4CCCCC4)cc3)nc3cccnc32)c1 | ? | ?
COc1cccc(CNC(=O)C2Cc3cc(S(=O)(=O)N4CCCCCC4)ccc3N2C(C)=O)c1 (centres undefined) | 1.5% | 5.0%
c1coc(-c2nc3ccccn3c2Nc2ccc3c(c2)OCCO3)c1 | -7.7% | ?
CCOC(=O)C(C)Sc1nc(-c2ccccc2Cl)cc(-c2ccccc2)c1C#N (centres undefined) | -24.2% | -6.4%
O=C(CSc1ncc(S(=O)(=O)c2ccc(Br)cc2)c(=O)[nH]1)NCc1ccccc1Cl | -15.5% | 2.6%
COc1ccccc1N1CCN(C(=O)c2c3c(nc4ccccc24)C(=O)N(C2CCCCC2)C3)CC1 | -14.7% | ?
CC1CCN(S(=O)(=O)c2cc(C(=O)NCc3ccccc3)n(C)c2)CC1 | -14.3% | -29.9%
O=S(=O)(Nc1ccc(Br)cc1F)c1ccc2nc(-c3ccccc3)[nH]c2c1 | -7.4% | ?
O=C(c1cccs1)c1cn(CCOc2ccccc2F)c2ccccc12 | -6.3% | ?
CCOc1ccc2ncc3c(-c4cccc(OC)c4)nn(-c4ccccc4)c3c2c1 | -20.3% | ?
Cc1ccccc1-n1nc(CO)c(C(=O)NCc2cccs2)n1 | ? | -5.7%
Cc1ccc(NC(=O)C(Cc2ccccc2)NS(=O)(=O)c2ccc3c(c2)oc(=O)n3C)cc1F (centres undefined) | -24.8% | 4.8%
OCC(O)CS (centres undefined) | 13.2% | nt
